Bioassay records: PubChem BioAssay, several laboratories
RGS16-Gao – modulators of RGS16 binding to Galphao, primary screen, biochemical, human proteins, multiplexed bead flow cytometry; Regulator of G-protein signaling 16 (Homo sapiens) + Guanine nucleotide-binding protein …; bead-based flow cytometry RGS16-Galphao binding, fluorescence; actives lie on both sides; binding response (% of control), % at 10 µM; hit rate 0.38% among 220,000; AID 1441, 2008;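 active = below 25% or above 175%, edge rows of some plates excepted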;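 note: Galphao activated by GDP with aluminum fluoride before binding; 100% = wells without compound and 0% = beads without RGS; some results beyond the cut were filed as inactive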
Target sequence (O15492 whole entry, looked up): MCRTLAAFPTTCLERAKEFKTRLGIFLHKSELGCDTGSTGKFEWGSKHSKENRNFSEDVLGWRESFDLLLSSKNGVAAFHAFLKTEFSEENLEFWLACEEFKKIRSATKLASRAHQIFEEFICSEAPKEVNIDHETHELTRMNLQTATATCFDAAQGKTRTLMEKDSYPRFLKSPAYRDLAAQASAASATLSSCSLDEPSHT
Target sequence (P09471 whole entry, looked up): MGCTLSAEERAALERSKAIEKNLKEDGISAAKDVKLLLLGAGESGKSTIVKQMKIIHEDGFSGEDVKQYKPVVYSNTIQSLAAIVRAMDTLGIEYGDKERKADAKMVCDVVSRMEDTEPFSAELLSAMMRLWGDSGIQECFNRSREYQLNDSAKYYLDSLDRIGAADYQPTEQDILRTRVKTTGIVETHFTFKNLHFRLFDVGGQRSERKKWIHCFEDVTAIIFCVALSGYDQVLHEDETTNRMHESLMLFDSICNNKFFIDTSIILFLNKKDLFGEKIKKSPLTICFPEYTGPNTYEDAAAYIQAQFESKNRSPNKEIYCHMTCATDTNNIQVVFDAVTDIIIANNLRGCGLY
GALR2 ag – GALR2 receptor agonists, primary screen, cell-based | activation, %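 (tested at 5 µM)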 | hit rate 0.48% among 140,000 | Galanin receptor type 2 (Homo sapiens), O43603 | GALR2-expressing cells, agonist activation read-out;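 active = above mean plus 3 SD of all compounds, about 5% in these data, not always enough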;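 note: 0% = vehicle buffer wells and 100% = reference agonist at full effect; tested in CHO reporter cells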
Target sequence (O43603 whole entry, looked up): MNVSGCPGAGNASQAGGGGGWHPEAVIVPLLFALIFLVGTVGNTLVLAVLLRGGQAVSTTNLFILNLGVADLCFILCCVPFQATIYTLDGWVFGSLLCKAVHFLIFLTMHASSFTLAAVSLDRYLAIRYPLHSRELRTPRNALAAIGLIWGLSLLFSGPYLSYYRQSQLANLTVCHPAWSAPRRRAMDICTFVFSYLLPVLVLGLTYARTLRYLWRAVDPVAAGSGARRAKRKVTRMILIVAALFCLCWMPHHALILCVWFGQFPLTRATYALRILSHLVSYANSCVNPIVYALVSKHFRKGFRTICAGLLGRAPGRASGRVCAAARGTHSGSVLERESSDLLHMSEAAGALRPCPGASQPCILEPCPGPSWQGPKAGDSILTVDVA
Insulin prom inh – inhibitors of insulin promoter-driven GFP, primary screen, imaging, TRM-6 cells (human fetal islet line), eGFP reporter, cell count. reporter expression induced with tamoxifen. inhibition, % at 2 µM. hit rate 0.9% among 130,000. AID 1273, 2008;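 active = inhibition above the mean plus 3 SD, with well images judged a real hit on visual review, cut at about 60% in these data, passing the limit was not always enough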
PKD1 inh – inhibitors of human PKD1 kinase, biochemical, fluorescence polarization; Serine/threonine-protein kinase D1 (Homo sapiens), Q15139; PKD1 kinase fluorescence polarization assay; inhibition, %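 (about 10 µM by stock and volumes)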; hit rate 0.056% among 200,000; AID 797, 2007;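 active = inhibition of 50% or more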;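 note: controls were vehicle for no effect and a reference inhibitor for full effect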
HSV augment – enhancers of HSV replication in host cells, fold increase, host cell viability; AID 1956, 2009; maximum fold increase; HSV replication augmentation in cells; hit rate 0.005% among 220,000;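 active = peak rise of 1.5-fold or more in the series; tested in PC3 cells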;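 note: first round at 10 µM; read as green reporter fluorescence; hits show the peak of a series up to 25 µM; 1 = signal of infected wells without compound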
Insulin prom inh cell count – second read-out of Insulin prom inh, no call of its own (marks repeat the call); normalized cell count, %; measured here: cell count, toxicity; reference of the scale not given here;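 cells exposed to compound for 48 h; stained nuclei by imaging scaled within each plate; lower means fewer cells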
HSV augment primary fold – further read-out of HSV augment, marked with its call; fold increase; compound at 10 µM; measured here: primary screen fold increase 10 uM; tested in PC3 cells;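 GFP signal in the first replicate; 1 = infected wells without compound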
Starred values were filed as active, the others as inactive; i = inactive; nt = no result given; [ ] = remark or other dose.

Compound	RGS16-Gao	GALR2 ag	Insulin prom inh	Insulin prom inh cell count	PKD1 inh	HSV augment	HSV augment primary fold
CCOC(=O)C1=C(C)Nc2ncnn2C1c1c[nH]c2ccccc12 (stereo unspecified)	100	-1.5	29	120	-8	i	0.71
CCOC(=O)N1CCC(NC2CCCCCCC2)CC1	113	-1.9	23	43	-6	i	0.89
CCOc1ccc(N2C(=O)C3C(c4ccccc4)=NN(c4ccccc4)C3C2=O)cc1 (stereo unspecified)	102	2.0	17	117	7	i	0.92
CCC(CC)NC(=O)COc1ccc(OC)cc1C=O	97	nt	7	132	-1	i	0.98
O=C1C(C=NC2CC2)=C(O)c2ccccc21	100	-2.3	28	102	-8	i	0.9
CN(C(=O)c1ccccc1C(=O)OCC(=O)NCc1cccs1)C1CCCCC1	101	nt	-93	104	-5	i	0.95
CCCCCn1c(CN(C)Cc2ccccc2)nc2c1c(=O)n(C)c(=O)n2C	238*[activator]	4.2	14	154	-1	i	0.93
CCN(CC)c1ccc(C(NC(C)=O)NC(C)=O)cc1	82	0.0	nt	nt	1	i	1
CC(C)Cn1c(SCC(=O)NCc2ccc(Cl)cc2)nnc1-c1cccc(S(=O)(=O)N2CCOCC2)c1	103	-2.4	-71	106	-7	i	0.89
CCc1ccc2c(COn3nnc4ccc(S(=O)(=O)N(C)C)cc43)cc(=O)oc2c1	54	-0.1	57	49	-3	i	0.87
CCOC(=O)Cc1cc(=O)n2[nH]cc(-c3ccc(Cl)cc3)c2n1	95	nt	nt	nt	1	i	1
COc1ccc(OC)c(-c2csc(N(Cc3ccco3)C(=O)c3cccs3)n2)c1	-160	-2.9	-3	141	-6	i	1.1
COc1ccc(CN(Cc2cccn2C)S(=O)(=O)c2cccc(C(F)(F)F)c2)cc1	96	nt	nt	nt	nt	i	1.1
CC(C)CNC(=O)CSc1nnc(CN2CCCCCC2=O)n1-c1ccccn1	93	-1.6	nt	nt	-5	i	0.94
CCOC(=O)C1CCN(C(=O)c2ccc(Cl)c(NC3=NC4CS(=O)(=O)CC4S3)c2)CC1 (stereo unspecified)	101	0.9	12	126	-5	nt	nt
O=C(Nc1ccccc1)Nc1ccccc1C(=O)NCc1ccccc1	105	-2.0	-77	189	-1	i	1
Cn1c(SCC(=O)NCc2cccs2)nnc1-c1cccs1	92	-2.9	-31	70	-11	i	1
N/C(=N\OC(=O)c1ccc(=O)n(Cc2ccccc2)c1)c1ccccn1	102	nt	-33	167	8	i	0.92
CCOC(=O)C1(CC2CC2)CCN(Cc2ccc(O)c(Cl)c2)CC1	109	nt	-14	101	3	i	0.96
O=C(O)C1=C[C@@H](c2ccccc2)C[C@@H](OCc2ccc(CO)cc2)O1	105	nt	nt	nt	3	i	0.74
CCOC(=O)c1[nH]c2ccc(OC)cc2c1NC(=O)CCN1CCc2ccccc2C1	97	-2.6	nt	nt	-3	i	1.1
Cc1ccc(NC(=O)CC2SCCNC2=O)cc1Cl (stereo unspecified)	102	-0.5	-17	90	1	i	1
Cc1cc(C(=O)NC(C)c2ccncc2)no1 (stereo unspecified)	99	-0.1	-31	110	-2	i	0.89
CCOc1cc(/C=N/NC(=O)C(=O)NC)cc(Br)c1O	97	1.5	nt	nt	-1	i	0.87
N#CCCn1cc(/C=C2\NC(=S)N(c3ccccc3)C2=O)c(-c2ccc(F)cc2)n1	101	nt	nt	nt	9	i	0.94
Cc1ccsc1/C=N/N1CCN(c2ccccc2)CC1	99	-1.3	-15	67	-1	i	0.88
O=S(=O)(Nc1nccs1)c1ccc(NCc2cc(Br)cc(Br)c2O)cc1	99	nt	nt	nt	nt	i	1.1
CC(C)N(C(=O)COC(=O)c1ccc(Cl)nc1)C(C)C	102	nt	nt	nt	-2	i	1.1
O=C(CSc1ncnc2nc[nH]c12)NCCc1ccccc1	96	-3.8	-44	124	-11	i	0.89
Cc1ccc(CNC(=O)CCNS(=O)(=O)c2ccc3c(c2)c(=O)n(C)c(=O)n3C)cc1	109	-0.3	0	84	-4	i	0.87

A second format for some results above:
CCOC(=O)C1(CC2CC2)CCN(Cc2ccc(O)c(Cl)c2)CC1
  RGS16-Gao: 109
  GALR2 ag: nt
  Insulin prom inh: -14
  Insulin prom inh cell count: 101
  PKD1 inh: 3
  HSV augment: i
  HSV augment primary fold: 0.96
O=C(O)C1=C[C@@H](c2ccccc2)C[C@@H](OCc2ccc(CO)cc2)O1
  RGS16-Gao: 105
  GALR2 ag: nt
  Insulin prom inh: nt
  Insulin prom inh cell count: nt
  PKD1 inh: 3
  HSV augment: i
  HSV augment primary fold: 0.74

Going on with the list.
Compound	RGS16-Gao	GALR2 ag	Insulin prom inh	Insulin prom inh cell count	PKD1 inh	HSV augment	HSV augment primary fold
COc1ccc(C2c3ccc4ccccc4c3Oc3ncn(Cc4ccco4)c(=N)c32)cc1OC (stereo unspecified)	102	0.7	nt	nt	0	i	0.98
COc1cccc(CCc2nnc(CCC(=O)N3CCCC3c3nccs3)o2)c1 (stereo unspecified)	100	nt	nt	nt	-3	i	0.97
CCOC(=O)c1[nH]c2ccccc2c1N=C(C)N(CC)CC	92	-2.4	nt	nt	1	nt	nt
Cc1cccc2c1N(CCOc1ccccc1)C(=O)C2=O	87	nt	nt	nt	-2	i	1
O=C(CCc1nc2ccccc2[nH]1)N1CCN(C(=O)c2ccco2)CC1	54	0.5	41	92	-8	nt	nt
O=c1[nH]c(=O)n(Cc2ccco2)c2c1C(C(F)(F)F)(C(F)(F)F)N=C(c1ccc(F)cc1)N2	98	-1.7	36	93	-12	i	0.86
O=C(NCc1ccccc1Cl)c1ccc2c(c1)SC1=NS(=O)(=O)CCN12	99	nt	nt	nt	-6	i	0.98
O=C(NCCCN1CCOCC1)c1ccc(Sc2ccc(Br)cc2)c([N+](=O)[O-])c1	102	-0.8	-59	181	-6	i	0.82
COc1ccc(N(CC(=O)NC2CCCC2)C(=O)CCC(=O)Nc2cc(C)on2)c(OC)c1	88	-3.0	39	133	4	i	1
COC(=O)c1cc(OC)c(OC)cc1NC(=O)CCC1CCCC1	106	0.3	-8	66	-14	i	0.94
CCn1c(=O)[nH]c2ccccc2c1=O	100	-2.2	11	139	-10	i	0.95
COc1ccc(N2CCN(C(=O)CSc3nnc(Cn4nnc5ccccc54)n3C)CC2)cc1	100	0.0	12	84	-5	i	0.91
Cn1nnnc1SCc1cccc(CSc2nnnn2C)n1	104	-2.0	-12	87	-5	i	0.91
Cc1onc(-c2ccccc2Cl)c1-c1nc(-c2ccncc2)no1	98	-3.1	9	93	-2	i	0.89
O=C(NCc1cccnc1)c1ccc(Cn2c(=S)[nH]c3ccc(Br)cc3c2=O)cc1	101	nt	nt	nt	-2	i	0.76
CNc1ccccc1C(C)(C)c1cc(C)[nH]n1	87	nt	-43	95	3	i	0.92
COC(=O)C(C)Sc1nc(-c2ccc(OC)cc2)nc2c1c(=O)n(C)c(=O)n2C (stereo unspecified)	nt	-1.2	10	107	0	nt	nt
CC(C)CCNC(=O)C(c1ccc(O)cc1)N(Cc1cccs1)C(=O)C1COc2ccccc2O1 (stereo unspecified)	105	-0.6	-44	101	0	i	0.64
O=C(O/N=C/c1cccc([N+](=O)[O-])c1)C1CC1	98	-3.5	-209	169	-1	i	1
O=C(NCc1ccc(Cl)cc1)NCC(F)(F)F	105	-1.3	29	88	-7	i	0.94
Cc1ccc(S(=O)(=O)N2c3ccccc3NC(=O)C2CC(=O)Nc2ccccc2)cc1 (stereo unspecified)	107	-2.6	nt	nt	-1	i	1
COc1ccc(N2C(=O)C3NN=C(C(=O)OCc4ccccc4)C3C2=O)cc1 (stereo unspecified)	107	nt	nt	nt	-11	i	0.9
COc1ccc(/C=C/C(=O)OCC(=O)Nc2ccc(Cl)cn2)cc1	102	nt	14	101	-3	i	0.94
CCn1c(C)nc2cc(-c3nnc(-c4c(-c5ccccc5)noc4C)o3)ccc21	102	1.2	nt	nt	-3	i	0.89
O=C(CSc1nnc(-c2ccc(Cl)cc2Cl)n1C1CCCCC1)N1CCCC1	100	-1.0	-100	113	-13	i	0.92
Cc1ccc(C(=O)Nc2cc3c(oc2=O)CCCC3=O)cc1	102	-3.5	43	89	4	i	0.8
CCOC(=O)Cc1csc(NC(=O)CSc2nnnn2-c2ccc(C)cc2C)n1	127	-1.6	31	109	-8	i	1.1
O=C(Nc1ccc(F)cc1)NC1CCN(Cc2ccccc2)CC1	104	nt	nt	nt	-2	i	0.92
O=C(Nc1ccc(Cc2ccncc2)cc1)c1ccc(S(=O)(=O)N2CCOCC2)cc1	101	-0.3	23	76	-9	i	1.2
CC(C)COc1ccc(C(=O)N/C(=C\c2cccc([N+](=O)[O-])c2)C(=O)O)cc1	95	nt	nt	nt	nt	i	0.91
O=C(N/N=C/c1c(Cl)cccc1Cl)C(=O)NC1CC1	92	nt	nt	nt	-6	i	1
C=CCCN(Cc1ccccc1)S(=O)(=O)c1ccccc1Br	115	nt	nt	nt	nt	i	1.1
Nc1ccc(Cl)cc1/C(=N/O)c1ccccc1	106	-1.8	16	91	6	i	0.9
O=C(Nc1cccc(Cl)c1)N1CCSc2cc(Cl)ccc21	101	-0.3	nt	nt	-4	i	0.73
COC(=O)c1ccc(NC(=O)C(OC)c2ccccc2)cc1 (stereo unspecified)	91	nt	nt	nt	-4	i	0.95
C=CCNC(=S)Nc1ccc2nc(C)c(C)nc2c1	84	-0.7	33	77	-10	i	0.85
CCC(=O)NNc1ncnc2ccccc12	105	-1.9	nt	nt	-3	i	0.9
Cc1ccsc1CNC(=O)c1c(-c2ccccc2)noc1C	96	nt	nt	nt	nt	i	1.1
CCOC(=O)COc1ccc(C2CC(C)=NN2c2ccccc2)cc1 (stereo unspecified)	99	nt	-19	72	-5	i	0.93
CCOc1ccccc1C(=O)N1CCC(C(=O)c2ccc(F)cc2)CC1	100	-2.0	-262	91	-3	i	1.1
O=C(O)C1=C(OCc2ccc(F)c(F)c2)C(=O)NCC1	98	nt	38	135	4	i	0.93
O=C(c1cnc2sccn2c1=O)N1CCc2ccccc2C1	104	-1.2	-35	49	-3	i	1
Cc1c(C(=O)O)oc2ccc(S(=O)(=O)N3CCCCC3C(=O)O)cc12 (stereo unspecified)	113	-0.3	nt	nt	-6	i	0.94
CCOC(=O)c1[nH]c(C)c(C(=O)OCC(=O)N2CCc3ccccc32)c1C	96	-2.1	26	64	-3	i	0.8
O=C(Nc1ccccc1N1CCCC1)c1cccnc1	93	-0.7	-4	94	-4	i	1.1
Cn1nc(C(C)(C)C)cc1C(=O)Nc1nc2c(s1)C(=O)CC(C)(C)C2	100	-0.7	nt	nt	0	i	1.2
CCO[C@@H]1OC(C(=O)O)=C[C@H](C2CCCCC2)[C@H]1CCCO	96	nt	nt	nt	3	i	1.2
Cc1cc(Cl)c2cc3ccccc3cc2n1	101	nt	nt	nt	nt	i	0.93
CCSC(C)CC1CC(=O)CC(=O)C1 (stereo unspecified)	nt	-0.8	-104	106	-6	i	0.91
CNC(=O)c1sccc1Oc1ccc(F)cc1[N+](=O)[O-]	99	nt	20	95	-1	i	0.96
COc1ccc(C(=O)NC(=O)NC2(C(Cl)(Cl)Cl)OCCO2)cc1	102	nt	nt	nt	-7	i	0.85
O=C(CN1CCC(Cc2ccccc2)CC1)NCCc1ccc(F)cc1	103	nt	nt	nt	-2	i	0.98
Cc1cc(C)c(C#N)c(SCCN2CCOCC2)n1	105	nt	nt	nt	nt	i	0.95
CCOc1nc(NC2CCCCC2)nc(NC(C)(C)C)n1	118	-0.8	nt	nt	-3	i	1
C/C(=N\NC(=O)c1c(Cl)c(C)nn1C)c1ccc(NC(=O)COc2ccc(Cl)cc2C)cc1	97	-0.6	nt	nt	5	i	0.74
Clc1ccc(Cn2nnc(-c3ccc(N4CCOCC4)cc3)n2)cc1	95	-2.7	-11	110	-11	i	0.74
CCOCc1nnc(NS(C)(=O)=O)s1	101	-2.8	nt	nt	2	i	0.95
COc1cc(-n2c(=O)c3ccccc3n(Cc3cc(=O)n4ccccc4n3)c2=O)cc(OC)c1OC	112	0.0	12	120	4	i	0.95
O=C(CSc1nnc(-c2ccncc2)o1)NCc1ccc(Cl)cc1	106	-0.9	19	122	-7	i	0.91
